Rango complex inh: qHTS Assay for Inhibitors of Rango (Ran-regulated importin-beta cargo) - Importin beta complex formation | Importin subunit beta-1 (Homo sapiens), Q14974 | Rango CFP/YFP FRET sensor + importin beta, 45 min | Potency, µM (series often up to 92.2 µM), without a hit: at the top dose inhibition of complex formation | hit rate 0.031% among 340,000; active = rising FRET ratio curve, often small or poorly fitted; inconclusive = mostly compound fluorescence or quenching in the first reads; inactive = flat curves in all reads;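 note: potency is the fitted concentration of half-maximal effect; 0% = DMSO wells and 100% = buffer wells lacking importin beta; nearly all actives have a fitted effect of over 15% in size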
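FRET biosensor (snurportin 1 IBB flanked by EYFP and cerulean), 50 nM, with compound 5 min, then 0.125 microM importin beta in PBS, 1 mM DTT, 0.02% Tween-20, 0.1% BSA. CFP/YFP ratio read after 45 min at room temperature; pre-read flags interference.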
GLA inh pH 4.5: qHTS Assay for Inhibitors of Human alpha-Galactosidase at pH 4.5; purified enzyme, 4-MU-alpha-Gal fluorescence, pH 4.5; 230,000 tested, under 10 active; Alpha-galactosidase A (Homo sapiens), P06280; activity change, negative = inhibition, % at 105 µM; inconclusive = small, poorly fitted or top-dose-only inhibition, or a rising curve; inactive = flat fitted curve, though single readings scatter; no compound was filed as active;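 note: 0% = full activity with enzyme and -100% = basal without enzyme; dose as in the result columns while the protocol names 77 µM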
Target sequence (P06280 whole entry, looked up): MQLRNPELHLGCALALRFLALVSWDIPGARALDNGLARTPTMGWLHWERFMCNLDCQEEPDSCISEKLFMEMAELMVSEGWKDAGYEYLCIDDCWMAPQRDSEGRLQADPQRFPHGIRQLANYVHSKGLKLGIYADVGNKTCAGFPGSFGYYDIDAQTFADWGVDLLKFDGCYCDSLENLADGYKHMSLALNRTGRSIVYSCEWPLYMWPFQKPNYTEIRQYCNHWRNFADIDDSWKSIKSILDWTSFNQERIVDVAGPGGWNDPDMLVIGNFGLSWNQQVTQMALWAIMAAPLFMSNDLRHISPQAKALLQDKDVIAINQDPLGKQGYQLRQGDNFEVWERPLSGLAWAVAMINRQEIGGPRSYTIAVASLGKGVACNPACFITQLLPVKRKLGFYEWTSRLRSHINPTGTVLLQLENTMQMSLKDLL
miR-21 FLuc: qHTS Assay for Modulators of miRNAs and/orActivators of miR-21; HeLa miR-21 FLuc reporter, luciferase, 48 h; Potency, µM (titrated, usually from 38.3 µM), without a hit: at the highest dose reporter change, positive = more light; 340,000 tested, under 10 active; AID 2288, 2010; active = well fitted rising curve with a large enough effect; inconclusive = small, poorly fitted or top-dose-only effect; inactive = no such curve, though single readings can be large or run the other way;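 note: % of control where 0% means no effect; miR-21 action dims this reporter so a rising signal means less miR-21 action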
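HeLa cells stably expressing CMV-driven firefly luciferase with a downstream miR-21 binding sequence, endogenously expressing miR-21, were treated with titrations (up to about 40uM final) for 48 hours at 37 degree Celsius. Luciferase luminescence was read after lysis.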
Rango release inh: qHTS Assay for Inhibitors of RanGTP induced Rango (Ran-regulated importin-beta cargo) - Importin beta complex dissociation; Biochemical FRET Rango-importin beta, RanGTP-induced dissociation; Potency, µM (series often up to 46.1 µM), inactives show at the highest dose activity change, negative = inhibition; hit rate 0.071% among 340,000; AID 540253, 2011; active means falling FRET ratio curve, often poorly fitted, with flat reads before Ran was added; inconclusive means other falling curves, or compound fluorescence or quenching; inactive means flat or rising ratio curve;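 note: potency is the fitted concentration of half-maximal effect; % of control where 0% means no effect; nearly all actives have a fitted effect of over 45% in size; -100% = wells without RanGTP and RCC1; the record marks most hits as doubtful in a second field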
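Compounds sat 5 min at room temperature with 0.1 uM Rango biosensor plus 0.25 uM importin beta, then FRET pre-read. RanGTP-RCC1 (0.6 uM Ran, 2mM GTP, 0.2 uM RCC1) added for 45 min, and the CFP/YFP post-read measured blocked complex dissociation.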
The depositor's hits bear a star; ? = inconclusive; . = no result given; & = joins results of further samples. These rows are one share of the data; the hit share may differ from the screen's.

Second line of a record – Rango complex inh | GLA inh pH 4.5 | miR-21 FLuc | Rango release inh
COc1ccccc1NC(=O)CCSc1ccc(C)cc1
  -0.3% | -11 | -19% | -18%
COc1ccc(NCc2nnc(SCC(=O)N3CCCc4ccccc43)n2C)cc1
  -1.1% | 3 | -5% | 3%
Cc1ccc(N(C(=O)c2ccccn2)C(C(=O)NC2CCCCC2)c2ccncc2)cc1 (stereo unspecified)
  -0.1% | . | -17% | 4%
O=C(O)[C@@H]1CCCN1S(=O)(=O)c1cccc2cccnc12
  5.1% | . | . | 8%
COC(=O)[C@@H]1C[C@H]2CC[C@H](O)C[C@H]2N1Cc1ccccc1OS(=O)(=O)c1ccc(C)cc1
  2.3% | 2&-2 | 2% | -6%
NC(=O)COC(=O)c1c2c(nc3ccccc13)CCCC2
  -3.5% | -8 | 1% | -2%
CCN(CC)CCNC(=O)CN1C(=O)COc2ccc(S(=O)(=O)N3CCOCC3)cc21
  -5.0% | . | -2%&4% | 3%
COc1ccc(C(=O)NC(=S)Nc2nc(C)c(C(=O)N(C)C)s2)cc1
  -0.8% | -2 | -2% | 0%
Cc1cccc(N2CC(C(=O)NC3CCCCCC3)CC2=O)c1C (stereo unspecified)
  -0.6% | . | . | -6%
CCOC(=O)c1[nH]c2ccc(Cl)cc2c1NC(=O)c1nonc1C
  -9.4% | -17 | -3% | 4%
Cc1ccc(N2C(=O)C3CCCN3C2=S)cc1Cl (stereo unspecified)
  -0.1% | . | 0% | -6%
CSc1ccc(/C=C/C(=O)OCC(=O)N2CCc3ccccc32)cc1
  -3.7% | . | . | 5%
Nc1c(C(=O)NCc2ccccc2)c2nc3ccccc3nc2n1-c1ccc2c(c1)OCO2
  2.4% | 1 | 0% | -8%
Cc1ccc2[nH]c3c(c2c1)CN(C(=O)CN1CCCCC1)CC3
  ? | -1 | 4% | -30%
COc1ccc(CCNC(=O)[C@H](C)N2C(=O)N3CCc4c([nH]c5ccccc45)[C@@]3(C)C2=O)cc1
  ? | . | 23% | 1%
Cc1ccc([N+](=O)[O-])cc1NC(=O)/C=C/C(=O)O
  2.1% | -2 | -1% | -11%
COc1cccc(-c2nnc(N(C)C(=O)C3CCOC3)s2)c1 (stereo unspecified)
  2.9% | -3 | -41% | 3%
CO[C@H]1C=CO[C@@]2(C)Oc3c(C)c(O)c4c(O)c(c(C=NN5CCN(C6CCCC6)CC5)c(O)c4c3C2=O)NC(=O)C(C)=CC=C[C@H](C)[C@H](O)[C@@H](C)[C@@H](O)[C@@H](C)[C@H](OC(C)=O)[C@@H]1C
  . | ? | 16% | .
Cc1ccc(C(=O)NNC(=O)Cc2csc(-c3csc(C)n3)n2)cc1
  -0.7% | 5 | -8% | 3%
Cc1ccc(C2=CC(c3ccccc3)n3ncnc3N2)cc1 (stereo unspecified)
  ? | . | . | ?
Cc1ccccc1NC(=O)c1ccc([N+](=O)[O-])o1
  -0.2% | -2 | 18% | 9%
S=c1[nH]nc(-c2ccc3ccccc3n2)n1-c1ccccc1
  1.6% | 1 | -14% | -18%
COc1ccc(C2C(C#N)=C(N)Oc3n[nH]c(C)c32)cc1CN1CCN(c2ccc(F)cc2)CC1 (stereo unspecified)
  5.8% | 4 | -4% | -11%
O=C1NC(=S)N/C1=C\c1ccc(Oc2ccc(C(F)(F)F)cc2[N+](=O)[O-])c(Cl)c1
  -0.1% | 2 | 2% | 0%
COc1ccc(COCC(O)CN2CCOCC2)cc1OC (stereo unspecified)
  1.3% | 1 | -2% | 14%
Cc1ccc(-c2nnn(CC(=O)Nc3ccc(S(=O)(=O)N4CCC(C)CC4)cc3)n2)cc1
  -6.5% | 3 | -13% | 0%
CCOC(=O)c1c(NC(=O)C(=O)N/N=C/c2ccc(OCC)cc2)sc2c1CCCCC2
  14% | 5 | -5% | -11%
O=C(CSCCO)Nc1cccc(C(F)(F)F)c1
  2.0% | -8 | 0% | 8%
O=C(C=C1CCN(c2ncc(C(F)(F)F)cc2Cl)CC1)NNC(=O)Nc1ccccc1
  0.9% | 5 | -25% | -2%
Cc1cccc(C)c1OCc1cc(C(=O)NCC2CC2)no1
  0.0% | . | -27% | 13%
CCOc1ccccc1NC(=O)CN1CCC(C(=O)c2ccc(F)cc2)CC1
  -2.2% | . | 23% | 4%
Cn1nnnc1SCC(=O)Nc1ccc(N2CCOCC2)cc1
  -2.0% | -20 | -4% | -1%
CCCCCCn1c(N2CCN(c3ccccc3)CC2)nc2c1c(=O)n(C)c(=O)n2C
  -5.4% | -7 | 1% | 2%
Cc1cccc(NC(=O)N2C3CCCC2CC(NC(=O)C2CC2)C3)c1 (stereo unspecified)
  -1.9% | . | -1% | -4%
C/C(CC(=O)Nc1ccccn1)=N\NC(=O)c1ccccc1
  . | 2 | -47% | .
O=C(NCCOc1ccccc1F)c1ccc2c(=O)n3c(nc2c1)CCC3
  1.7% | . | . | -12%
CCn1nc(C)c(NC(=O)c2cnn3c(C(F)F)cc(-c4ccccc4)nc23)c1C
  3.0% | -22 | 4% | 8%
CC(=O)N1CCc2cc(S(=O)(=O)Nc3cccc(C(F)(F)F)c3)ccc21
  -0.9% | 8 | 12% | 0%
Cc1ccc(S(=O)(=O)N2CCCC2CO)cc1 (stereo unspecified)
  -1.9% | -7 | -2% | 8%
O=C(NN1C(=O)C2C3C=CC(O3)C2C1=O)c1cccc(Br)c1 (stereo unspecified)
  -8.1% | -1 | 3% | 10%

An excerpt from above in order of their number in Rango complex inh, smallest number first:
Second line of a record – Rango complex inh | GLA inh pH 4.5 | miR-21 FLuc | Rango release inh
Cc1ccc(-c2nnn(CC(=O)Nc3ccc(S(=O)(=O)N4CCC(C)CC4)cc3)n2)cc1
  -6.5% | 3 | -13% | 0%
CCCCCCn1c(N2CCN(c3ccccc3)CC2)nc2c1c(=O)n(C)c(=O)n2C
  -5.4% | -7 | 1% | 2%
O=C1NC(=S)N/C1=C\c1ccc(Oc2ccc(C(F)(F)F)cc2[N+](=O)[O-])c(Cl)c1
  -0.1% | 2 | 2% | 0%

(further entries)
Second line of a record – Rango complex inh | GLA inh pH 4.5 | miR-21 FLuc | Rango release inh
Cc1ccc(SCCNC(=S)Nc2ccc(C)c(C)c2)cc1
  -3.5% | -12 | 8% | 7%
CCCCN1C(=O)C2NN=C(C(=O)OC)C2C1=O (stereo unspecified)
  -1.8% | -3 | -1% | -13%
O=C(CN1c2cccc3cccc(c23)S1(=O)=O)NCc1ccc(F)cc1
  -2.2% | . | . | 11%
CCc1ccc2nc(NC3=NCN(CCN4CCOCC4)CN3)nc(C)c2c1
  . | 0 | -8% | .
O=C(Cn1ncc2c(=O)oc3ccccc3c21)N1CCC(N2CCCCC2)CC1
  0.3% | 5 | -5% | 27%
COc1ccc(N2CC(C(=O)Nc3nccs3)CC2=O)cc1 (stereo unspecified)
  0.5% | -2 | 2% | 9%
CCOc1ccc(Cl)cc1C1=CC(=O)C[C@H](c2ccc(OC)cc2)C1
  0.7% | . | . | -8%
O=C(Nc1nc2ccccc2n1CCN1CCCCC1)C1CCCCC1
  0.7% | -3 | 10% | -9%
O=C(OCCOc1ccccc1)c1n[nH]c2ccccc12
  3.8% | -3 | -75% | 2%
Cc1ccc(S(=O)(=O)Nc2ccccc2N=Cc2c(F)c(F)c(F)c(F)c2F)cc1
  ? | . | . | 2%
COc1ccc(-c2cc(C)no2)cc1S(=O)(=O)N1CC(=O)Nc2ccccc21
  0.4% | . | -6% | -8%
CCOC(=O)c1ccc(NC(=O)Cn2nnc3ccccc32)cc1
  2.6% | -3 | -13% | 0%
O=S(=O)(Nc1ccccc1)c1cccc2nonc12
  -0.9% | . | -1% | 3%
COc1ccc(C(NC(C)=O)c2c(O)ccc3ccccc23)cc1OC (stereo unspecified)
  2.5% | 5 | -10% | 13%
CC(C)(C(=O)O)c1ccc(C(O)CCCN2CCC(C(O)(c3ccccc3)c3ccccc3)CC2)cc1 (stereo unspecified)
  -0.9% | -6&-12&-9 | 0% | 4%
Cc1ccccc1NC(=O)CN1CCOCC1
  1.1% | . | 0% | 22%
O=C1C[C@@H]2c3c(cccc3CN1Cc1ccc(F)cc1)C[C@@H](O)[C@H]2O
  4.4% | . | . | 40%
Cc1ccc(C(=O)COC(=O)c2cccc([N+](=O)[O-])c2)s1
  1.4% | . | . | 1%
CN(C(=O)COC(=O)CCC(=O)c1ccccc1)c1c(N)n(Cc2ccccc2)c(=O)[nH]c1=O
  -1.4% | . | . | -4%
COc1ccc(C2=NN(C(=O)CSc3nnc(C)n3C)C(c3ccco3)C2)cc1 (stereo unspecified)
  3.6% | -6 | -14% | 8%
CC(C)Cc1c(O)nc(SCC(=O)N2CCCCCC2)[nH]c1=O
  6.5% | . | 2% | 10%
CC1CC(CC(=O)Nc2nc(-c3ccccc3)cs2)C(=O)O1 (stereo unspecified)
  0.6% | -12 | -8% | 1%
COc1ccc(-n2cnc3cc(NCc4ccco4)ccc32)cc1
  -0.3% | 0 | -79% | -5%
COc1ccc(/C(C)=N/NC(=O)c2ccccc2OCc2ccccc2)c(OC)c1
  -2.4% | -6 | -42% | -7%
COc1ccc(-c2[nH]ncc2Oc2ccccc2OC)c(O)c1
  -0.1% | -9 | -1% | 3%
CCCCCOc1ccc(C(=O)NC(C(=O)O)C(C)C)cc1 (stereo unspecified)
  1.0% | 13 | -13% | 6%
COc1ccc(C(=O)Nc2ccccc2C(=O)N2CCCCCC2)cc1
  6.7% | . | -5% | 0%
N#CCCSc1nc(N2CCOCC2)c2c(c1C#N)CCCC2
  2.7% | -6 | -13% | -10%
Cc1ccc(C)c(NC2=NC3(CCCCC3)N=C(N)N2)c1
  4.0% | 5 | -1% | 3%
Cc1ccc(C(C)C)c(OCc2ccc(C(=O)N/N=C/c3ccc(C(=O)O)cc3)cc2)c1
  -0.5% | -5 | 11% | -1%
COc1ccccc1Oc1ccc2c(c1)C(=O)N(c1cccc(O)c1)C2=O
  -2.8% | -13 | -8% | -3%
COc1ccccc1N(CC(=O)NCc1cccnc1)S(C)(=O)=O
  -1.1% | -5 | -3% | 22%
CC(C)c1cc(CNC(=O)c2cc(COc3cncc(Cl)c3)on2)on1
  5.2% | . | -1% | 8%
CN(Cc1nnc(SCC(=O)NCCc2ccccc2)n1C)S(=O)(=O)c1ccccc1
  -2.0% | 3 | -2% | ?
CC(C)CCNC(=O)c1ccc(C2SCC(=O)N2Cc2ccco2)cc1 (stereo unspecified)
  -7.0% | -4 | -2% | -20%
Cc1cc(C(=O)OC(C)C(=O)Nc2nc(-c3ccccc3)cs2)c(C)o1 (stereo unspecified)
  -2.1% | -17 | -3% | -11%
CC(=O)/C(N=Nc1cc2c(cc1[N+](=O)[O-])OCCO2)=C(\C)O
  4.4% | -10 | 1% | -10%
COc1ccc([N+](=O)[O-])cc1N(CC(=O)NCC1CCCO1)S(C)(=O)=O (stereo unspecified)
  2.7% | 9 | 1% | -9%
COc1cc(CNc2ccc3[nH]c(=O)[nH]c3c2)ccc1OCc1ccccc1
  -0.3% | . | -5% | 9%
O=C(NCC1CCN(Cc2ccccc2F)CC1)Nc1cc(F)ccc1F
  -0.1% | . | 3% | 7%
Cc1cc(NS(=O)(=O)c2ccc(NC(=O)C(F)(F)F)cc2)nc(C)n1
  2.7% | . | 1% | -21%
COc1ccc(C(=O)Nc2ccc(S(=O)(=O)Nc3cnc4ccccc4n3)cc2)cc1
  -0.7% | . | -16% | -7%
COc1ccc(-c2nnc(SCC(=O)N(C)C3CCS(=O)(=O)C3)n2C(C)C)cc1 (stereo unspecified)
  8.9% | . | . | 6%
Cc1ccc(CN=C2Nc3ccccc3CS2)cc1
  -1.2% | -14 | -28% | 5%
CCOC(=O)c1c(C)n(C)c2cc([N+](=O)[O-])c(O)c([N+](=O)[O-])c12
  3.6% | -23 | -3% | 9%
COc1cc(-c2nc(CN(C)Cc3nnc(C)o3)c(C)o2)ccc1F
  8.9% | 0 | -1% | 5%
CCc1noc(C)c1C(=O)Nc1nc(-c2ccc(Cl)cc2Cl)cs1
  -0.3% | -5 | 4% | 0%

Screens (PubChem BioAssay)
